StopGo FLuc = lowers the firefly signal of an FMDV 2A StopGo reporter; Potency, µM (top dose mostly 57.5 µM), without a hit: top-dose signal change, negative = less light; HEK cells with a luciferase reporter of 2A StopGo recoding; hit rate 0.23% among 120,000; AID 1745856; active = well fitted falling curve with a large enough effect; inconclusive = small, poorly fitted or top-dose-only effect; inactive = no such curve, though single readings can be large or run the other way; also: nearly all actives have a fitted effect of over 60% in size; overnight with compound
StopGo RLuc = FMDV 2A StopGo reporter, Renilla signal | HEK cells with a luciferase reporter of 2A StopGo recoding | Potency, µM (titrated, usually from 57.5 µM), for inactives: top-dose signal change, negative = less light | hit rate 0.32% among 120,000; active means well fitted falling curve with a large enough effect; inconclusive means small, poorly fitted or top-dose-only effect; inactive means no such curve, though single readings can be large or run the other way; also: nearly all actives have a fitted effect of over 55% in size; overnight with compound
Numbers without * were called inactive; ? = inconclusive; & = joins results of further samples; [ ] = remark or other dose. % is scaled to controls: 0 for no effect and ±100 for the full control effect; potency is read from the fitted curve at half-maximal effect. An excerpt, so the mix of outcomes need not match the whole.

canonical_smiles | StopGo FLuc | StopGo RLuc
CCCCn1c(=O)c2oc3ccccc3c2n(Cc2cccc(F)c2)c1=O | -9% | -5%
COc1cc(C2CC(=O)Nc3n[nH]c(Nc4ccccc4)c32)cc(OC)c1O (stereo unspecified) | -9% | -7%
CCn1c(CN2CCCCC2)nc2cc(NC(=O)COc3ccccc3C(C)(C)C)ccc21 | 23% | -7%
Oc1ccc(N=Cc2cccc(OCc3ccccc3)c2)cc1 | 141%[activator] | 11%
CCCCNC(=S)NN=C1CCCC1 | 16% | 2%
Cc1cc2nc(NC3=NCN(CCc4ccccc4)CN3)nc(C)c2cc1C | 36% | 21%
COc1c(Br)c(CC2CC(c3ccc(F)cc3)=NO2)c(OC)c2c1OCO2 (stereo unspecified) | ? | 36%[activator]
CCCC12CCC(NC(C)=O)(CC1)CC2 | -3% | 2%
CCOc1ccccc1CNC(=O)CSc1n[nH]c(-c2ccccc2)n1 | -21% | -7%
COc1ccccc1NC(=O)Cn1c(=O)n(CC2CCC(C(=O)NCCc3ccccc3)CC2)c(=O)c2ccccc21 (stereo unspecified) | 0% | 1%
CN(C)CCCNc1oc(-c2cccs2)nc1C#N | 2% | 6%
COc1ccc(NC(=O)C2=C(C)Nc3nc(SCc4ccc(Cl)cc4)nn3C2c2cccc(OC)c2OC)cc1 (stereo unspecified) | 3% | 7%
O=C(NCCc1ccc(Cl)cc1)c1ccc(CSCc2ccc(Cl)cc2)o1 | -6% | -5%
CCc1ccc2ncc(S(=O)(=O)c3ccc(Cl)cc3)c(N3CCN(CC)CC3)c2c1 | -11% | -14%
COc1ccc(-c2[nH]nc3c2C(c2ccc(N(C)C)cc2)C2=C(CC(C)(C)CC2=O)N3)cc1 (stereo unspecified) | 7% | 196%[activator]
O=C(Cn1ccc2cc(S(=O)(=O)N3CCCC3)ccc21)NCc1ccc(Cl)cc1 | -2% | 61%[activator]
O=S(Cc1ccccc1)Cc1ccccc1F (stereo unspecified) | 0% | 9%
O=C(OCc1cccc(COC(=O)C2=COCCO2)c1)C1=COCCO1 | 92%[activator] | 2%
O=C(COc1c(CO)cc(F)cc1CO)Nc1ccc(F)c(Cl)c1 | 15% | -6%
CCc1ccccc1-n1nnnc1SCC(=O)Nc1ccc2nccnc2c1 | 20% | 0%
CCCNc1c(NC(=O)c2ccc(OCCC)cc2)c(=O)oc2ccccc12 | 17%&-13% | 16%&37%
CCCCCn1nc(C(=O)OCCOc2ccccc2F)c2ccccc2c1=O | 6% | 9%
O=C(CSc1nnc(NC2CCCCC2)s1)Nc1cc(Cl)ccc1Cl | 13% | 32%[activator]
CCc1ccc(C2NC(=O)c3[nH]nc(-c4cccc(OC)c4)c32)cc1 (stereo unspecified) | 2% | 6%
Cc1cc(NC(=O)COc2ccc3ccc(=O)oc3c2)no1 | 60%[activator] | 29%
O=C(OCCCc1ccccc1)c1c2ccccc2cc2ccccc12 | 19% | 5%
Cc1ccc(C)c(-c2nn(CC(=O)NC3CC3)c(=O)c3ccccc23)c1 | 50%[activator] | -4%
COc1ccc(Cl)cc1NC(=O)Cn1nc(C(F)(F)F)c2c1CCC2 | -8% | 2%
COc1ccc(NC(=O)CSc2nc3[nH]ncc3c(=O)n2-c2ccccc2)cc1 | 15% | 2%
N#Cc1nc(-c2ccccc2F)oc1N1CCN(C(=O)c2cccs2)CC1 | 23% | -1%

(next part)
canonical_smiles | StopGo FLuc | StopGo RLuc
O=C(Nc1ccc2nc(SCC(=O)N3CCCC3)sc2c1)c1ccc(F)cc1 | 23%&0% | 5%&6%
O=C(/C=C/c1cccs1)Oc1ccccc1/C=C/C(=O)c1cc2ccccc2o1 | 0% | -2%
CC(C)N(Cc1cnn(C)c1)S(=O)(=O)c1ccc(F)c(F)c1 | -4% | -2%
O=C(NCCc1ccc(Cl)cc1)c1ccc2c(c1)N(Cc1ccccc1)CCS2 | 57%[activator] | 11%
CCOc1ccc(CNCCc2c[nH]c3ccccc23)cc1OCC | -9% | -17%
CC(NC(=O)C1CCCCC1)c1ccncc1 (stereo unspecified) | 6% | 5%
O=C(CCSCCc1ccccn1)Nc1ccccc1C(F)(F)F | -2% | -8%
COc1cc(C2CC(=O)Nc3c(-c4cccc(F)c4)nsc32)cc2c1OCO2 (stereo unspecified) | -13% | -10%
COc1cc(C(=O)N2CCC(c3ccncc3)CC2)cc(OC)c1OC | 16% | -15%
CCC(=O)OCc1cc(=O)n2nc(C3CC3)sc2n1 | -7% | 0%
COc1cc(/C=C/C(=O)c2cccc(O)c2)cc(Cl)c1O | 0% | -5%
CCCCN(C)Cc1ccc(CC)cc1 | -3% | 4%[1.06 µM]
CC(C)C(=O)N1CCN(c2ccccc2NC(=O)C2(c3ccccc3)CCCC2)CC1 | ? | ?
CCOc1ccc(NC(=O)NCc2nc(-c3ccc(OCC)cc3)oc2C)cc1 | 51%[activator] | 2%
Cc1c(CCC(=O)NC2(C)CCS(=O)(=O)C2)c(=O)oc2cc(O)ccc12 (stereo unspecified) | 1% | 3%
CCOc1cccc2cc(S(=O)(=O)c3cc(F)cc(F)c3)c(=O)oc12 | -22% | -20%
CCOc1cccc(NC(=O)c2ccc(F)c(S(=O)(=O)N(CC)c3cccc(C)c3)c2)c1 | -25% | -9%
Cc1[nH]c2ccccc2c1C(=O)C(=O)NCC1CCN(C)CC1 | -3% | -13%
CCOc1ccc(CNCCNC(=O)c2nonc2N)cc1 | 0% | 23%
CCC1(c2ccc(NC(=O)c3cc(OC)cc(OC)c3)cc2)CCC(=O)NC1=O (stereo unspecified) | 4% | 1%
COc1ccccc1N1CCN(c2c3c(nc4nncn24)CCC3)CC1 | 0% | 16%
Cc1oc(-c2ccc(C(=O)NCCCN3CCOCC3)cc2)nc1CSc1ccccc1 | -4% | 5%
N#Cc1nc(-c2ccc(F)cc2)oc1NCCN1CCOCC1 | 59%[activator] | 26%
CCCCC(=O)Nc1cccc(C)c1C | 0% | 8%
COc1ccc2cc(CN(C)C(=O)CNC(=O)c3ccc(Cl)cc3)ccc2c1 | ? | ?
OC(c1cccc(Cl)c1Cl)C(F)(F)F (stereo unspecified) | 6% | 6%
COc1ccc(COCC(O)Cn2nc(-c3ccc(C)cc3)c3ccccc3c2=O)cc1 (stereo unspecified) | -24% | -16%
O=C(O)c1ccc(CNCCc2c[nH]c3ccccc23)cc1 | -7% | -1%
Cc1c(-c2ccccc2)oc2c(C(=O)OCC(=O)N3CCC(C)CC3)cccc2c1=O | 73%[activator] | 0%
O=C(CN1CCSc2ccccc21)N1CCCCC1 | 0% | 20%

In a second layout: results already given.
O=C(O)c1ccc(CNCCc2c[nH]c3ccccc23)cc1
  StopGo FLuc = -7%
  StopGo RLuc = -1%
COc1cc(C(=O)N2CCC(c3ccncc3)CC2)cc(OC)c1OC
  StopGo FLuc = 16%
  StopGo RLuc = -15%

The results go on:
Below each SMILES – StopGo FLuc	StopGo RLuc
Fc1ccc(C2=Nc3ccc(Cl)cc3NC(c3cccs3)=N2)cc1
  0%	61%[activator]
CC1(C)Cc2ccccc2-c2nnc(-c3ccccn3)n21
  5%	-10%
COc1ccccc1CNC(=O)CSC1=Nc2ccccc2N=C(c2ccc(F)cc2)C1
  7%	-4%
CCOc1ccccc1NC(=O)Cc1nc(-c2cccs2)oc1C
  -11%	14%
COc1cc(NC(=O)COC(=O)c2cccc(S(=O)(=O)N3CCc4ccccc43)c2)cc(OC)c1
  -6%	-4%
CC(C)(C)C1CCc2c(sc(/N=C/c3ccc(I)s3)c2C#N)C1 (stereo unspecified)
  -10%	-2%
CCCCCCCCCCSCC(=O)OCC(=O)c1ccc(-c2ccccc2)cc1
  0%	3%
Cc1ccc(CN(Cc2ccco2)C(=O)c2ccc(Cl)cc2)o1
  ?	38%[activator]
CCOc1cccc2c(C)nc(Nc3nc(C)c(CC)c(=O)[nH]3)nc12
  -6%	2%
Cc1nc2ccc(C(=O)NC3CCN(Cc4ccccc4)CC3)cc2nc1C
  -17%	-16%

Continuation.
Below each SMILES – StopGo FLuc	StopGo RLuc
CCCn1c(CN2CCN(c3cccc(Cl)c3)CC2)nc2c1c(=O)n(C)c(=O)n2C
  15%	2%
COc1ccc(-c2nc3ccc(NS(=O)(=O)c4ccc(C)cc4)cc3o2)cc1
  15%	255%[activator]
CC1(C)Cc2c(sc3c2c(=O)n(CCO)c(=O)n3CCCc2ccccc2)CO1
  -9%	14%
Cc1ccc(C)c(OCC(O)Cn2nc(-c3ccco3)oc2=O)c1C (stereo unspecified)
  -2%	2%
O=C(Nc1ccc(-c2nc3ccccc3o2)c(O)c1)c1ccccc1
  8%	9%
Cc1cc(C)c(NC(=O)C2CCN(C(=O)N3CC(C)Oc4ccc(Cl)cc43)CC2)c(C)c1 (stereo unspecified)
  -10%	-10%
CS(=O)(=O)N1CCc2cc(C(=O)N3CCN(c4cccc(Cl)c4)CC3)ccc21
  ?	?
Cc1cc(OC(=O)c2ccccc2Cl)cc(OC(=O)c2ccccc2Cl)c1
  39%[activator]	4%
NC(=O)N/N=C/c1ccccc1Br
  10%	6%
COC(=O)C(=C/C=C/c1ccccc1)C(=O)OC
  76%[activator]	-2%

3 compounds drawn at random from those above:
Below each SMILES – StopGo FLuc	StopGo RLuc
COc1ccc(-c2[nH]nc3c2C(c2ccc(N(C)C)cc2)C2=C(CC(C)(C)CC2=O)N3)cc1 (stereo unspecified)
  7%	196%[activator]
CCCn1c(CN2CCN(c3cccc(Cl)c3)CC2)nc2c1c(=O)n(C)c(=O)n2C
  15%	2%
CCCCCn1nc(C(=O)OCCOc2ccccc2F)c2ccccc2c1=O
  6%	9%

(listing goes on)
Below each SMILES – StopGo FLuc	StopGo RLuc
CCCCn1c(N)c(N(CC)C(=O)c2cc(CC)c(C)s2)c(=O)[nH]c1=O
  11%	2%
CCOC(=O)C(C)Sc1nnc(CSc2ncccn2)n1-c1ccc(F)cc1 (stereo unspecified)
  4%	5%
Cc1ccc(CNC(=O)c2cnn(C)c2-n2cccc2)cn1
  8%	4%
CC1(C)Cc2cccc(OCc3ccc(C(=O)NC4CCCC4)cc3)c2O1
  -3%	-8%
COc1ccc(/C(C)=N/O)c(F)c1
  18%	0%
COc1ccc(-n2nc3c(N4CCCC(C(=O)NCc5cccc(F)c5)C4)nnc(C)c3c2C)cc1 (stereo unspecified)
  -11%	78%[activator]
COCCCNC(=O)CCn1c(=O)c2ccccc2n(CC(=O)Nc2cc(Cl)ccc2OC)c1=O
  -10%	-12%
CCN(C(=O)Cn1nc(C(N)=O)c2ccccc2c1=O)C1CCCC1
  0%	33%
CCN(CC)CCCNC(=O)c1cccs1
  -12%	-1%
CC(=O)c1ccc(NC(=O)CCc2c(C)nc3c(c(C)nn3-c3ccc(C)cc3)c2C)cc1
  84%[activator]	-3%

The list goes on:
Below each SMILES – StopGo FLuc	StopGo RLuc
COc1ccc(OCCOC(=O)CCC(=O)c2ccc3c(c2)OCCO3)cc1
  4%	-2%
CN(C)CCNCc1ccc2c(c1)OCO2
  14%	7%
CC1=C(c2ccc(Cl)cc2)S(=O)(=O)N=C1N1CCN(c2cccc(C)c2)C(C)C1 (stereo unspecified)
  -13%	-4%
CC12CCC3C(CCC4=CC(=O)CCC43C)C1CCC2=O (stereo unspecified)
  -3%	-3%
N#Cc1cn(CC(=O)NC2CCCCC2)c2ccccc12
  -2%	-3%
CCCCCn1c(CN2CCN(c3cccc(Cl)c3)CC2)nc2c1c(=O)n(C)c(=O)n2C
  19%	-3%
Cc1cccc(C)c1NC(=O)CC(C)(C)CC(=O)O
  -7%	2%
CCOc1ccc(-c2nc3ccccc3c(=O)o2)cc1
  174%[activator]	17%
CCOC(=O)c1cccc(NC(=O)N2Cc3ccccc3Oc3ncccc32)c1
  73%[activator]	12%
Cc1ccc(SCc2ccc(C(=O)Nc3c(C)cc(C)cc3C)cc2)cc1
  -2%	2%

Record cards (already shown):
Cc1c(-c2ccccc2)oc2c(C(=O)OCC(=O)N3CCC(C)CC3)cccc2c1=O is entered as StopGo FLuc: 73%[activator]; StopGo RLuc: 0%
CCOc1ccc(NC(=O)NCc2nc(-c3ccc(OCC)cc3)oc2C)cc1 is entered as StopGo FLuc: 51%[activator]; StopGo RLuc: 2%

Other records follow:
Below each SMILES – StopGo FLuc	StopGo RLuc
Cc1ccccc1C(=O)Nc1nc2nc(C)c(C)c(=O)n2[nH]1
  4%	5%
O=C(O)C1(Cc2nc3ccccc3s2)CCCC1
  13%	-10%
COCCc1nn2c(=O)cc(COC(=O)COc3ccccc3C)nc2s1
  2%	-6%
COc1cccc(NC(c2nnc(-c3ccccc3)o2)c2ccc(F)cc2Cl)c1 (stereo unspecified)
  -15%	?
Cc1ccc(/C=N/Nc2ccccc2C(F)(F)F)cc1
  145%[activator]	9%
COC(=O)c1[nH]c2ccc(C)cc2c1NC(=O)C(C)N1CCCC(C)(C)C1 (stereo unspecified)
  -2%	5%
Cc1ccc2c(CN3CCN(C(=O)c4ccc(C)c(F)c4)CC3)cc(=O)oc2c1
  -11%	-9%
Fc1ccc(N/N=C/c2cccc(Cl)c2Cl)c(F)c1
  253%[activator]	19%
O=C(c1cc2c(s1)CCCCCC2)N1CCN(c2ncccn2)CC1
  19%	-4%
COc1ccccc1CNC(=O)Cn1c(=O)oc2ccccc21
  7%	-7%

Continuation.
Below each SMILES – StopGo FLuc	StopGo RLuc
COc1ccccc1N1CCN(CC(O)COc2ccc(C)cc2C(C)(C)C)CC1 (stereo unspecified)
  -5%	-7%
CCOC(=O)c1c(S(=O)(=O)N2CCCC2)nn(C)c1C
  4%	-4%
Cc1csc2nc(-c3cccc(NC(=O)c4cccc(F)c4)c3)cn12
  -4%	13µM*
CCC1(C)CC(=O)NC1=O (stereo unspecified)
  -3%[11.5 µM]	-4%
COc1ccccc1Nc1nc(N)c(C(=O)c2c(C)cc(C)cc2C)s1
  15%	25%
CCOC(=O)C1=C(O)C(=O)N(c2ccccc2)C1c1ccccc1F (stereo unspecified)
  111%[activator]	136%[activator]
O=S(=O)(CCSc1nncs1)c1ccccc1
  41%	23%
